VDR inh: blocks the human vitamin D receptor; P11473; VDR-SRC2-3 peptide fluorescence polarization, 2 h; Potency, µM, for inactives: max response, negative = inhibition, hits mostly inhibitors; 400,000 tested, 0.93% active; active = well fitted inhibition curve with a large enough effect; inconclusive = small, poorly fitted or top-dose-only effect, or another doubt; inactive = no such curve, though single readings can be large or run the other way; note: series mostly up to about 120 µM
Target sequence (P11473 whole entry, looked up): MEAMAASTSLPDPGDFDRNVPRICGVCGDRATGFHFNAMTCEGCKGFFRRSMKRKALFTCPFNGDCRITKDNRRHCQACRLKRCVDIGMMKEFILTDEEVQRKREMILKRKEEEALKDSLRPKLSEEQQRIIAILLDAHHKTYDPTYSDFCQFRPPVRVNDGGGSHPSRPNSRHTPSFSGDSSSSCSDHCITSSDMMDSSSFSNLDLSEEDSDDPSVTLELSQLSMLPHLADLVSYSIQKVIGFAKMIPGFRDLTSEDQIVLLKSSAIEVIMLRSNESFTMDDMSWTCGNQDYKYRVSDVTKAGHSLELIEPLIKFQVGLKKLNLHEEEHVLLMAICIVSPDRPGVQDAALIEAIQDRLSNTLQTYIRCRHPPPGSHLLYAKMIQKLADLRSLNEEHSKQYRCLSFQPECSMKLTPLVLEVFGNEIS
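Fluorescence polarization assay of small-molecule disruption of VDR binding to coregulator peptide SRC2-3. Compounds and controls pin-transferred, then read after 2 h incubation at ambient room temperature.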
* marks the source's active call; other numbers are inactive results; ? = inconclusive; & = joins results of further samples; [ ] = another dose, or the depositor's remark. % is set by controls: 0 for no effect and ±100 for the full control effect; potency is the fitted concentration of half-maximal effect.

SMILES	VDR inh
COc1cc(/C=N/O)cc(Cl)c1OC	-15%
COc1ccc(OCc2cc(C(=O)N(C)Cc3cc(C4CC4)n[nH]3)no2)c(Cl)c1	0%
COC(=O)Cn1cnc2c(nnn2-c2ccc(C)cc2)c1=O	-8%
CC(C)(/C=N/O)N(O)C=C1C=CC(=O)C=C1	-9%
N#C/C(=C\c1ccc(-c2ccc(F)cc2)o1)C(=O)Nc1nc(-c2cccs2)cs1	-2%
CN1CCN(S(=O)(=O)c2ccc(NS(=O)(=O)c3ccccc3)cc2)CC1	-9%
COc1cccc(C(=O)NCCS(=O)(=O)NCc2ccco2)c1	5%
CC(=O)Nc1ccc(S(=O)(=O)N(C)c2ccc(OCC(=O)Nc3ccccc3C(C)=O)cc2)cc1	-8%
COc1cccc(C(=O)Nc2c(C(=O)N3CCN(c4ccc(F)cc4)CC3)oc3ccccc23)c1	1%
O=C(Nc1ccc(NC(=O)c2cc3ccccc3o2)cc1)c1ccc2c(c1)OCCO2	8%

(continued)
SMILES	VDR inh
COc1ccccc1CN1CC(C(=O)NC2CCOCC2)CCC1=O (configuration not stated)	10%
Cc1ccc(OCC(=O)N(Cc2ccccc2)C(C)(C)C)c([N+](=O)[O-])n1	5%
CCN(CC)c1ccc(NC(=O)Cn2cc3c(n2)CCCC3)c(C)c1	7%
CC(=O)Nc1ccc(NC(=O)Nc2ccc(C)c(C)c2)cc1	-2%
CCOC(=O)c1c(C)n(C)c2ccc(OCC(O)CN3C(=O)c4ccccc4S3(=O)=O)cc12 (configuration not stated)	-6%
CC(C)(C)N(Cc1cc2ccccc2[nH]c1=O)C(=O)c1cccnc1	-6%
CC1Oc2ccccc2C=C1/C=N/NC(=O)c1ccccc1 (configuration not stated)	-5%
CCOC(=O)C1CCCN(C(=O)CN2C(=O)COc3ccc(C(C)(C)C)cc32)C1 (configuration not stated)	1%
CCN(CC)CCNc1ncnc2c1sc1nc(N3CCCC3)c3c(c12)CC(C)(C)OC3	-9%
CCC(C)NC(=S)N(Cc1cc2cc(C)ccc2n2nnnc12)CC(C)(C)NC(C)C (configuration not stated)	-18%

Next part:
SMILES	VDR inh
CC(C)Oc1ccc(CNC(=O)c2ccc(CS(=O)Cc3ccccc3Cl)o2)cc1 (configuration not stated)	12%
Cc1ccccc1C1CC(c2ccc(F)cc2)Nc2nc(N)nn21 (configuration not stated)	-24%
CCN1CCN(CCC(=O)Nc2ccc3c(c2)OCO3)CC1	9%
Cc1cc(Cn2nc(-c3ccccc3)cc2C(=O)NCc2cccc(Br)c2)on1	-5%
CCN(C(=O)COC(=O)c1ccccc1NC(=O)c1ccco1)C1CCS(=O)(=O)C1 (configuration not stated)	2%
COc1cc(/C=C(\C#N)C(N)=O)ccc1OS(=O)(=O)c1ccc(C)cc1	?
Cc1ccc(NC(=S)Nc2ccc3nc(-c4ccccn4)c(-c4ccccn4)nc3c2)cc1C	-20%
O=C(Nc1ccc2oc(-c3cccc4c(Br)cccc34)nc2c1)c1ccc(Br)cc1	-9%
CCCCOc1ccc(/C(N)=N/O)cc1	9%
Cc1cccc(C(OC(=O)c2ccco2)C(=O)NCc2ccccc2)n1 (configuration not stated)	-1%

(continued)
SMILES	VDR inh
N#Cc1ccccc1OCC(=O)N1CCc2ccccc2C1	-12%
CCN(CC(=O)NCc1cccs1)C(=O)c1ccccc1Cl	-8%
CCCc1cc(=O)oc2cc(OCC(=O)NCCc3c[nH]c4ccccc34)ccc12	-21%
Cc1ccc(Nc2nnc(-c3ccc(C)c(S(=O)(=O)N4CCCCC4)c3)c3ccccc23)cc1	-11%
COc1ccc(/C=N/N2CCOCC2)cc1O	0%
O=C(Oc1c(Cl)cc(Cl)c2cccnc12)N1CCCCC1	-13%
Cc1ccc2sc(N(CCCN(C)C)C(=O)c3nc4ccccc4s3)nc2c1C	20%
COC(=O)c1ccc(NC(=O)N2CCCC(C(=O)c3ccccc3OC)C2)cc1 (configuration not stated)	-5%
CCCn1cc(S(=O)(=O)c2ccc(C)c(C)c2)c(=O)c2cc(F)c(N3CCC(C)CC3)cc21	9%
O=c1cc(-c2ccc3c(c2)OCCO3)oc2ccc(Cl)cc12	-27%

(further entries)
SMILES	VDR inh
c1n[nH]c(SCCCCSc2ncn[nH]2)n1	-11%
CCN1CCN(c2nnc(-c3ccc(F)cc3)c3ccccc23)CC1	28%
Cc1nnc(SC(C)C(=O)Nc2ccc(N3CCOCC3)cc2)n1Cc1ccccc1 (configuration not stated)	-5%
CCOC(=O)C1CCN(C(=O)COC(=O)C2CCN(S(=O)(=O)c3ccc(C)c(C)c3)CC2)CC1	-1%
NC(N)=NCCC[C@H](NC(=O)OCc1ccccc1)C(=O)O	-6%
CCC(C(=O)NCc1ccccc1OC)n1nc(C)n2c(cc3sccc32)c1=O (configuration not stated)	-10%
CCc1ccc(NC(=O)CCNS(=O)(=O)c2ccc3c(c2)CCCC(=O)N3)cc1	5%
CCCn1c(SCC(=O)NCc2ccccc2)nnc1-c1ccncc1	-4%
CC(C)Oc1ccc(C(=O)NCC(c2ccc(N(C)C)cc2)N2CCc3ccccc32)cc1 (configuration not stated)	6%
Cc1ccc(S(=O)(=O)NC23CC4CC(CC(C4)C2)C3)cc1	-30%

Remaining list, next part.
SMILES	VDR inh
C=C(C)C1CC=C(C(=O)O)CC1 (configuration not stated)	-2%
COc1cccc(NC(=O)CN2C(=O)NC(C)(CCC(C)C)C2=O)c1 (configuration not stated)	-8%
CCOC(=O)C1CCN(C(=O)c2nn(-c3ccc(OC)cc3)c(=O)c3c2c2ccccc2n3C)CC1	-6%
COc1ccc([N+](=O)[O-])cc1NC(=S)Nc1ccccc1	-1%
CCOC(=O)C1=C(O)CSC1=Nc1ccc(Cl)cc1	3%
CC(C)(C)c1ccc(COC(=O)CN2C(=O)NC3(CCCC3)C2=O)cc1	-8%
COC1=C(Nc2ccc(O)cc2)C(=O)c2ccccc2C1=O	25µM*
CCc1nn(C)c(-c2n[nH]c(=S)n2N)c1Cl	-9%
O=C(CSc1nnc(CNC(=O)c2cccs2)o1)NCc1ccc(F)cc1	2%
Cc1cccc(C(=O)Nc2cccc(OCC(=O)O)c2)c1	3%

Following part
SMILES	VDR inh
O=C(Nc1ccc2c(c1)CCC2)c1ccccc1Br	-9%
CC(C)(C)C(=O)/C=c1\[nH]c(=O)/c(=C\c2ccc(F)cc2)s1	13%
Cn1c(N)c(C(=O)COC(=O)c2ccc(Cl)nc2)c(=O)n(C)c1=O	11%
O=C(NCc1ccc(F)cc1)C1CCN(S(=O)(=O)N2CCCCC2)CC1	15%
CCOC(=O)N1CCC(n2c(SCC(=O)Nc3nccs3)nc3ccsc3c2=O)CC1	3%
CN(C)CCN1C(=O)NC(C)(c2ccc([N+](=O)[O-])cc2)C1=O (configuration not stated)	-1%
CCC1CCCCN1Cc1nc(Cc2ccccc2Cl)no1 (configuration not stated)	-9%
COc1ccc(C(C)=O)cc1CSc1nc2ccccc2c(=O)n1-c1ccccc1C	1%
Cc1cc(Nc2ccc(Cl)cc2)nc(N)n1	-10%
Cc1cc(Nc2cccc(Br)c2)n2c(nc3ccccc32)c1C#N	13%

Of the compounds above, 3 contain a nitro group on carbon:
SMILES	VDR inh
Cc1ccc(OCC(=O)N(Cc2ccccc2)C(C)(C)C)c([N+](=O)[O-])n1	5%
COc1ccc([N+](=O)[O-])cc1NC(=S)Nc1ccccc1	-1%
CN(C)CCN1C(=O)NC(C)(c2ccc([N+](=O)[O-])cc2)C1=O (configuration not stated)	-1%

(next part)
SMILES	VDR inh
Cc1ccc2c(c1)sc1nc(=O)n(-c3ccc(Cl)cc3)c(=O)n12	8%&-12%
COc1cccc(N2C(=O)CC(Nc3ccc(N4CCOCC4)cc3)C2=O)c1 (configuration not stated)	-19%
O=C(Cc1ccccc1F)Nc1ccc(SC(F)F)cc1	-3%
CCOC(=O)c1c(NC(=O)CSc2nnc(-c3c[nH]c4ccccc34)n2CCOC)sc2c1CCCCC2	-14%
C=CCOc1ccc(/C=C/C(=O)OCC(=O)N2CCC(c3ccccc3)=N2)cc1	-6%
COc1ccc(OC)c(C2=NOC(C(=O)NCc3cccnc3)C2)c1 (configuration not stated)	-4%
O=C(CCn1cnc2ccccc2c1=O)Nc1cccc(Cl)c1	2%
COc1cc2[nH]c(=O)n(CCC(=O)N3CCN(Cc4ccccc4)CC3)c(=O)c2cc1OC	-4%
CCCc1ccc(C(=O)NNc2ccccc2F)cc1	-16%
CCc1ccc(NC(=O)c2cc(S(=O)(=O)N3CCCC3)ccc2F)cc1	2%

(further entries)
SMILES	VDR inh
CCC(C(=O)NCCCN1CC(C)CC(C)C1)n1ncn2c(cc3occc32)c1=O (configuration not stated)	-24%
O=C(O)CCCNS(=O)(=O)c1ccc2c(c1)OCCCO2	14%
COc1ccccc1/C=C/C(=O)NCCC1=CCCCC1	-7%
Cc1c(Cl)cccc1NC(=O)C1CCN(c2nc3ccccc3[nH]2)CC1	2%
Cc1cc(O)c(C2(O)C(=O)Nc3cc(Br)ccc32)cc1C (configuration not stated)	-16%
CC(=O)Nc1ccc(/C=N/OCC(=O)Nc2ccc(C)cc2)cc1	-13%
CCOCCCN1CC(C(=O)NCCc2ccc(C)cc2)CC1=O (configuration not stated)	7%
NCC(O)CC(=O)O (configuration not stated)	-1%
O=C(CSc1nccn1C1CCCC1)Nc1cccc(F)c1	19%
Cc1ccc(CN2C(=O)CCC2C(=O)NC(C)C)cc1 (configuration not stated)	-5%

More structures:
SMILES	VDR inh
C/C(=N/NC(=O)CSc1nc2ccccc2n1C)c1ccc(O)cc1	-2%
COC(=O)c1cc(-c2ccc(OC)c(OC)c2)c2c(=O)[nH]c(=O)n(C)c2n1	44%&4%[activator]
Cc1ccc(C(=O)Nc2cccc(NC(=O)c3cccnc3)c2)cc1	-5%
O=C(C1CCCN(CCCc2ccccc2)C1)N1CCCCC1 (configuration not stated)	11%
COc1ccc(/C=N/NC(=O)c2cccc(NC(C)=O)c2)c(OC)c1	-6%
Cc1cc(C(=O)CSc2nc3ccc(Cl)cc3[nH]2)c(C)n1Cc1ccco1	?
Cc1ccc(C(=O)c2cn(CC(=O)Nc3ccc(C)cc3Cl)c3nc(C)ccc3c2=O)cc1	7%
CCOC(=O)CN(C(=O)CNC(=O)c1ccco1)C(C(=O)NC1CCCC1)c1ccccc1OCC (configuration not stated)	-19%
COc1ccccc1NC(=S)NC(=O)Cc1ccc(Cl)cc1	-2%
CCOC(=O)Cc1csc(NS(=O)(=O)c2cccc([N+](=O)[O-])c2)n1	-5%

Going on with the list.
SMILES	VDR inh
COc1cccc(NC(=O)CNC(=O)Cn2cnc3sc4c(c3c2=O)CCCC4)c1	12%
Cc1ccccc1N/N=C/c1ccc(C#N)cc1	-7%
Cc1ccc(CNC(=O)CCC2CCCN(Cc3cccc4cccnc34)C2)o1 (configuration not stated)	16%
Cc1ccc(NC(=O)NCCCN2CCCC2=O)cc1C	-5%
O=C(NCCc1ccc(Cl)cc1)C1(c2cccs2)CCOCC1	7%
CCOc1ccccc1C1CC(c2ccc(Br)cc2)Nc2nc(N)nn21 (configuration not stated)	-22%
C=CCNC(=S)Nc1ccc2nc(C)oc2c1	40%[activator]
Cc1ccc(NC(=O)c2ccccn2)c(Br)c1	7%
O=C(COC(=O)C1CCC(=O)N1)Nc1ccc(Cl)cc1Cl (configuration not stated)	4%
Cc1ccc(NC(=O)Nc2nnc(N3CCCC3)s2)cc1C	8%

(list continues)
SMILES	VDR inh
COc1ccc(NC(=O)C2CCCN2S(=O)(=O)c2cccc3cccnc23)cc1OC (configuration not stated)	10%&8%
CCn1c(Cc2cccs2)nnc1SCC(=O)NC1CC1	26%
Cc1ccc(OC(=O)N2CCOCC2)cc1	-5%
CCn1cc(C(=O)Nc2ccccc2C(=O)OC)cn1	-14%
COc1ccc(CN(C(=O)c2ccco2)c2ccc(Br)cc2)cc1OC	-5%
Cc1ccc(-c2cc(C(=O)N(C)Cc3cnn(C)c3C)c3cc(Br)ccc3n2)cc1	-25%
NC(=S)N/N=C/c1ccc(-c2cc(Cl)c(Cl)cc2Cl)o1	-2%
COc1ccc(-c2cc(CCC(=O)N3CCN(c4cc(C)ccc4C)CC3)on2)cc1	-12%
COC(=O)C1C2CC(C(Br)C2Br)C1C(=O)O (configuration not stated)	13%
COc1cccc(/C=N/NC(=S)NCCc2ccccc2)c1	1%
CN1C(=O)N(C)C2C1N(C)S(=O)(=O)N2C (configuration not stated)	16%

In the list so far, 13 have a furan ring, fused or not:
SMILES	VDR inh
N#C/C(=C\c1ccc(-c2ccc(F)cc2)o1)C(=O)Nc1nc(-c2cccs2)cs1	-2%
COc1cccc(C(=O)NCCS(=O)(=O)NCc2ccco2)c1	5%
COc1cccc(C(=O)Nc2c(C(=O)N3CCN(c4ccc(F)cc4)CC3)oc3ccccc23)c1	1%
O=C(Nc1ccc(NC(=O)c2cc3ccccc3o2)cc1)c1ccc2c(c1)OCCO2	8%
CC(C)Oc1ccc(CNC(=O)c2ccc(CS(=O)Cc3ccccc3Cl)o2)cc1 (configuration not stated)	12%
CCN(C(=O)COC(=O)c1ccccc1NC(=O)c1ccco1)C1CCS(=O)(=O)C1 (configuration not stated)	2%
Cc1cccc(C(OC(=O)c2ccco2)C(=O)NCc2ccccc2)n1 (configuration not stated)	-1%
CCC(C(=O)NCCCN1CC(C)CC(C)C1)n1ncn2c(cc3occc32)c1=O (configuration not stated)	-24%
Cc1cc(C(=O)CSc2nc3ccc(Cl)cc3[nH]2)c(C)n1Cc1ccco1	?
CCOC(=O)CN(C(=O)CNC(=O)c1ccco1)C(C(=O)NC1CCCC1)c1ccccc1OCC (configuration not stated)	-19%
Cc1ccc(CNC(=O)CCC2CCCN(Cc3cccc4cccnc34)C2)o1 (configuration not stated)	16%
COc1ccc(CN(C(=O)c2ccco2)c2ccc(Br)cc2)cc1OC	-5%
NC(=S)N/N=C/c1ccc(-c2cc(Cl)c(Cl)cc2Cl)o1	-2%

These rows are one share of the data (hit frequency here may not be typical).
